Compound activity as filed in PubChem BioAssay.
D2 agonist – Beta-Arrestin HTS for Positive Allosteric Modulators of the Human D2 Dopamine Receptor: Agonists; D(2) dopamine receptor (Homo sapiens), P14416; DiscoveRx PathHunter D2 beta-arrestin, luminescence, 90 min; 100% = 57 uM dopamine signal; activation, % (test concentration not listed); hit rate 0.084% among 360,000; in the data active = activation above about 40%; inconclusive = about 15% to 40%; inactive = below about 15%; note: compound concentration not given in the record; the text of the record calls up to 30% inactive
Target sequence (P14416 whole entry, looked up): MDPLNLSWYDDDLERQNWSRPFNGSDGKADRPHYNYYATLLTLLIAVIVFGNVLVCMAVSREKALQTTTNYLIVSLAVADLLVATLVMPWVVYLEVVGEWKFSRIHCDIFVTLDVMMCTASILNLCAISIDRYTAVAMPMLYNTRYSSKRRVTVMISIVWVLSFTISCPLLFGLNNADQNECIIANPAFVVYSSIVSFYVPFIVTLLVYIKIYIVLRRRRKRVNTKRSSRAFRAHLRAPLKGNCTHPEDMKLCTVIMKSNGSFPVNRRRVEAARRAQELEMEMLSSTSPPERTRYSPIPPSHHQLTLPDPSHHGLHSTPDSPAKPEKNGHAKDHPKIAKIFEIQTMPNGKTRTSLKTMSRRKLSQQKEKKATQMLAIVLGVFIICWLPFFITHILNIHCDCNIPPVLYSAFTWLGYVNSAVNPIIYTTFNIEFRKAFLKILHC
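DiscoveRx PathHunter D2 beta-arrestin cells (2,100/well) attached overnight, then compound-stimulated 90 min at 37 C in HBSS/10 mM HEPES/0.1% Tween-20 buffer; beta-galactosidase complementation read by luminescence after 1 h at ambient temperature. Dopamine 57 uM final (EC100) as control.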
TRPML1 agonist – qHTS for Agonists of the Human Mucolipin Transient Receptor Potential 1 (TRPML1); Mucolipin-1 (Homo sapiens), Q9GZU1; TRPML1-expressing cells, Ca2+ dye fluorescence, FDSS; host cell line not named in the record; reference of the full effect not given here; activation, % (concentration not given with the values); hit rate 0.12% among 410,000; in the data active = activation above about 50%; inconclusive = about 30% to 50%; inactive = below about 30%; note: 0% is about no effect; the text of the record puts the active cut at 80%
Target sequence (Q9GZU1 whole entry, looked up): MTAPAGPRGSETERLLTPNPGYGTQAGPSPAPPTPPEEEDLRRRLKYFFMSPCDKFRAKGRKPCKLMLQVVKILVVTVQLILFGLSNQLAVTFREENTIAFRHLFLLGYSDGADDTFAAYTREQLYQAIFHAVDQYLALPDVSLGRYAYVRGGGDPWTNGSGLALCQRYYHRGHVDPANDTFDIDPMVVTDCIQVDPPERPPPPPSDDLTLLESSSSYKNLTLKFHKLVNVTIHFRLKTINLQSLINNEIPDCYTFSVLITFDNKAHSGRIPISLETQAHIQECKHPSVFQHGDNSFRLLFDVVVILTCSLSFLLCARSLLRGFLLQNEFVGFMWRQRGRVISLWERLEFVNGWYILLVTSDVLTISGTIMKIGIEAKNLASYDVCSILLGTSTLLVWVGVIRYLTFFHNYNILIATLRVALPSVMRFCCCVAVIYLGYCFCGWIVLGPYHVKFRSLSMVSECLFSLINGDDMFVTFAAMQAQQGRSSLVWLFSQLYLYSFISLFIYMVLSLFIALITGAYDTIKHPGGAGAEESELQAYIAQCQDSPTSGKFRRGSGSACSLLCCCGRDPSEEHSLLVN
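Cells: TRPML1-DL, 1X Tet inducer, ~16 h at 37 degrees C/5% CO2. Dye: ABD Ca8 no-wash + quencher, 45-90 min RT. Read: 10 s baseline, compound add, 110 s agonist phase; 54-4 EC80 (4uM final), 110 s antagonist phase.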
CtBP-E1A blk – qHTS Assay for Inhibitors of the CtBP/E1A Interaction | CtBP / adenovirus E1A interaction (AlphaScreen) | AlphaScreen GST-E1A/His-CtBP binding, 1536-well; stronger effect = lower value; control for the full effect not named in the record | activity change, % (concentration not given with the values) | hit rate 0.49% among 340,000; in the data active means activity change below about -65%; inconclusive means about -30% to -65%; inactive means above about -30%; note: % is set by controls: 0 for no effect and ±100 for the full control effect
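Homogeneous bead-based format: GST-tagged E1A captured on glutathione donor beads, His-tagged CtBP on nickel acceptor beads; compounds precede bead addition by 2 h at 37 °C.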
Six1-Eya2 inh – qHTS Assay for Inhibitors of the Six1/Eya2 Interaction; AlphaScreen GST-Six1/His-Eya2 binding, biochemical; stronger effect = lower value; control for the full effect not named in the record; activity change, % (concentration not given with the values); hit rate 0.56% among 360,000; AID 651725, 2012; in the data active = activity change below about -65%; inconclusive = about -30% to -65%; inactive = above about -30%; note: % is set by controls: 0 for no effect and ±100 for the full control effect
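Compounds are tested against tagged Six1 and Eya2 proteins bridged by glutathione donor and nickel acceptor beads; after a one-hour incubation at 37 °C without light, AlphaScreen emission is recorded.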
TRPML1 inh – qHTS for Inhibitors of the Human Mucolipin Transient Receptor Potential 1 (TRPML1); Mucolipin-1 (Homo sapiens), Q9GZU1; hit rate 0.02% among 390,000; TRPML1-inducible cells, Ca2+ dye fluorescence, FDSS; stronger effect = lower value; inhibition of EC80 agonist-evoked calcium signal; activity change, negative = inhibition, % (test concentration not listed); in the data active means activity change below about -50%; inconclusive means about -30% to -50%; inactive means above about -30%;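 note: stimulus is agonist 54-4 at its EC80 concentration; % is set by controls: 0 for no effect and ±100 for the full control effect; compound concentration not given in the record; the text of the record puts the active cut at -80%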
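Tet-induced TRPML1-DL cells loaded with Ca8 no-wash calcium dye were read kinetically on FDSS. Compound addition was followed by EC80 agonist 54-4 (4 uM final); inhibition was read over 110 s.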
PINK1 expr mod – A Quantitative High throughput Screen to Identify Chemical Modulators of PINK1 Expression; PINK1 immunofluorescence, high-content cytometry, 24 h; Potency, µM (highest dose often 76.6 µM), without a hit: top-dose activation (PINK1 increase), actives largely listed as activators; hit rate 0.2% among 410,000; AID 624263, 2012; active = well fitted activation curve with a large enough effect; inconclusive = small, poorly fitted or top-dose-only effect; inactive = flat fitted curve, though single readings scatter; cell line not stated here;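 note: potency is the fitted concentration of half-maximal effect; % of control where 0% means no effect; nearly all actives have a fitted effect of over 65% in size; a mitochondrial uncoupler was the plate control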
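Fluorescence from anti-PINK1 antibody, together with nuclear and cell stains, was scanned on a laser-scanning cytometer. Before staining, stable-line cells were incubated 24 hours with compounds at 5 concentrations; primary antibody 12 h at 10 degrees C.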
* marks the source's active call; other numbers are inactive results; u = inconclusive; x = not tested or not shown; & = joins results of further samples; [ ] = dose if it differs, or a comment. Compounds were not picked by outcome, and some 1% of all compounds hit somewhere here.

SMILES	D2 agonist	TRPML1 agonist	CtBP-E1A blk	Six1-Eya2 inh	TRPML1 inh	PINK1 expr mod
Cc1nc(NC(=O)c2cc3c(C)nn(-c4ccccc4)c3s2)sc1C(=O)Nc1ccccc1	-1.0	-0.9	-1.6	-3.4	-5.5	-0.2%
Cc1cc(C(=O)NN=C2CCCCC2)c2ccccc2n1	-4.3	-0.4	5.9	12.8	8.6	12.4%
O=C(CCc1ccccc1)NNC(=S)NC(=O)c1ccccc1	2.1	1.2	29.7	0.2	-2.9	-2.6%[38.3 µM]
COc1ccc(Cc2noc(CN(C)CC3(N4CCOCC4)CCCCC3)n2)cc1OC	-6.9	-0.1	-26.4	-2.4	0.6	0.9%
CNC(=O)c1c(NC(=O)c2cc(=O)c3cc(C)c(C)cc3o2)sc2c1CCCC2	x	-0.3	x	x	-29.0	0.0%
CCN(CC)C(=O)C1CCN(S(=O)(=O)c2c(C)noc2/C=C/c2cccc(OC)c2)CC1	x	2.2	x	x	5.5	0.7%
O=C(Nc1ccsc1C(=O)N1CCCCCC1)c1ccccc1	2.2	1.8	-5.6	9.7	11.7	2.0%
O=C(c1ccc2snnc2c1)N1CCSCC1	-1.9	-1.3	8.3	-2.5	8.2	1.4%
COc1ccc(C(C)(C)C)cc1S(=O)(=O)N1CCN(C)CC1	-2.1	-1.1	-5.5	11.5	7.7	-1.2%
COc1ccc(/C=C(\NC(=O)c2ccccc2)C(=O)OC[C@@H]2CCC[N+]3(C)CCCCC23)cc1OC (stereo partly drawn)	8.5	1.6	-4.2	3.1	0.5	-0.8%
O=C(Nc1ccc2oc(=O)ccc2c1)c1ccc2ccccc2c1	-1.4	0.4	4.4	-7.7	-1.1	0.5%
C=CC(C)Sc1nc2c(c(=O)n(C)c(=O)n2C)n1Cc1ccccc1Cl (stereo not drawn)	-3.2	-0.9	-2.4	3.5	8.1	3.6%
NS(=O)(=O)c1ccc(CCNC(=O)CN2CCN(S(=O)(=O)c3ccccc3F)CC2)cc1	-2.0	-0.3	1.2	9.2	-12.9	1.3%
CCOC(=O)N1CCN(C(=O)CN(c2cccc(C)c2)S(=O)(=O)c2ccc(C)cc2)CC1	-1.0	0.5	-2.2	2.4	2.2	6.1%[38.3 µM]
O=C(CCn1cccn1)Nc1ccc2c(c1)OCCO2	-4.4	-0.4	x	6.2	-11.3	1.9%
Cc1ccccc1NC(=O)/C(=C/c1cccs1)NC(=O)c1ccco1	-5.1	0.2	-1.2	-1.9	-0.5	2.4%
O=C(c1ccc([N+](=O)[O-])cc1)N1CCCC1	-10.5	x	-1.7	-2.2	x	2.2%
CCN(C(=O)COC(=O)c1ccc([N+](=O)[O-])o1)c1cccc2ccccc12	3.5	0.3	-21.1	-4.1	7.8	2.6%
CC(=O)N1CCN(C(=O)c2cccc(S(=O)(=O)N3CCN(c4ccccc4)CC3)c2)CC1	-3.1	0.9	-10.3	4.1	5.6	0.8%
CCOc1ccc(N2CC(NC(=O)Cc3ccccc3)CC2=O)cc1 (stereo not drawn)	x	-0.3	x	x	2.9	0.4%
CCN(CC)C(=O)c1sc(NC(=O)C(C)Sc2nc(-c3ccccc3)cc(C(F)(F)F)n2)c(C(=O)OC)c1C (stereo not drawn)	x	0.4	x	x	20.5	6.3%
COc1ccc(-c2nc3c(s2)CN(S(C)(=O)=O)CC3)cc1OC	3.0	-1.6	0.0	-3.7	-17.5	0.9%
COc1ccccc1N1CCN(C(=O)c2cc3c(=O)n(Cc4cccnc4)ccc3nc2C)CC1	x	-0.1	x	x	4.4	-0.9%
CCn1c(P(C)(=O)O)nc2cc(NC(=O)c3ccccc3Cl)ccc21	-1.4	0.0	0.5	4.7	11.2	4.3%
CC(NC(=O)COC(=O)Cc1ccsc1)c1ccccc1 (stereo not drawn)	-0.5	0.7	11.9	-1.6	-15.2	1.2%

Next part; the last 4 above are carried over.
SMILES	D2 agonist	TRPML1 agonist	CtBP-E1A blk	Six1-Eya2 inh	TRPML1 inh	PINK1 expr mod
COc1ccc(-c2nc3c(s2)CN(S(C)(=O)=O)CC3)cc1OC	3.0	-1.6	0.0	-3.7	-17.5	0.9%
COc1ccccc1N1CCN(C(=O)c2cc3c(=O)n(Cc4cccnc4)ccc3nc2C)CC1	x	-0.1	x	x	4.4	-0.9%
CCn1c(P(C)(=O)O)nc2cc(NC(=O)c3ccccc3Cl)ccc21	-1.4	0.0	0.5	4.7	11.2	4.3%
CC(NC(=O)COC(=O)Cc1ccsc1)c1ccccc1 (stereo not drawn)	-0.5	0.7	11.9	-1.6	-15.2	1.2%
COc1ccccc1C(=O)NCC(=O)NCCCN1CCOCC1	-0.3	1.2	-4.7	8.3	29.2	0.3%
Cc1cc2c(cc1S(=O)(=O)NCCc1ccc(Cl)cc1)OCC(=O)N2	-0.8	-0.6	-3.3	1.1	-1.1	2.2%
CCOc1ccc(NC(=O)CN(C)C(=O)c2ccc(NC3CC3)c([N+](=O)[O-])c2)cc1OCC	0.4	0.6	-8.8	-12.5	-0.6	-1.6%
COc1ccccc1Oc1cc(-n2nc(C)cc2C)ncn1	5.0	-0.7	12.0	13.4	-15.3	0.3%
CC(=O)Nc1ccc(S(=O)(=O)NC2(C(F)(F)F)NC(=O)N(c3ccc(C)cc3)C2=O)cc1 (stereo not drawn)	-3.2	0.2&0.1	-1.4	8.6	16.1&24.6	2.3%&1.2%
CCOCCCNC(=O)N[C@H](C(=O)OC)C(C)CC (stereo partly drawn)	-1.6	0.2	-0.1	-1.7	-11.8	-1.1%
CCNc1nc(N)nc(Oc2ccc(OCCOc3ccc(Cl)cc3Cl)nn2)n1	1.7	-0.3	6.7	-0.8	-10.4	-4.5%[38.3 µM]
COc1cccc(OC)c1C(=O)NC(C)c1ccccc1 (stereo not drawn)	-2.0	0.2	3.3	11.4	7.9	2.4%
Cc1ccccc1N1CC(C(=O)N2CC(C)CC(C)C2)CC1=O (stereo not drawn)	-3.5	0.7	5.0	-5.6	11.3	-0.9%
COc1ccccc1-c1cccc(-c2nc(C(=O)N3CCCCC3)cc3c2[C@H](CCO)N(S(=O)C(C)(C)C)C3)c1 (stereo partly drawn)	u	0.8	-1.4	-2.6	14.4	-0.1%
COCC(=O)Nc1nnc(-c2cccs2)s1	-2.9	0.0	-7.9	-3.3	6.5	0.3%
O=C(OCC(=O)N1CCCC1=O)C1CCN(S(=O)(=O)c2c(Cl)cccc2Cl)CC1	-4.3	1.6	-3.5	3.7	-3.9	0.2%
COc1cccc2c1C(=O)c1c(O)c3c(c(O)c1C2=O)CC(O)(C(=O)CO)CC3OC1CC(N(C)C)C(O)C(C)O1 (stereo not drawn)	0.5	11.9	u	u	-17.3	-6.2%
O=C(CSc1nnc(-c2ccc(O)cc2)o1)Nc1ccc2c(c1)OCCO2	-1.4	2.0	-0.5	-1.4	24.8	2.0%
Cc1ccc(C)c2[nH]c(=O)c(CCNC(=O)CC(C)C)cc12	-3.9	0.1	4.6	7.2	-4.6	1.0%
CC1CC(C)CN(C(=O)CSC2=Nc3ccccc3C3=NC(Cc4c[nH]c5ccccc45)C(=O)N23)C1 (stereo not drawn)	-0.5	2.3	-3.8	-18.9	-10.0	x
Cn1c(CCC(=O)OCC(=O)NCc2ccc3c(c2)OCO3)nc(=O)c2ccccc21	-3.6	-0.2	3.4	0.2	-15.9	3.0%
CCC(CC)C(=O)Nc1cccc(C(=O)Nc2ccc3c(c2)OCO3)c1	3.4	3.6	0.0	-12.0	-12.5	-0.3%[38.3 µM]
CCN(CC)CC(=O)NC1CCCc2c1cnn2-c1cc(F)cc(F)c1 (stereo not drawn)	-2.3	1.5	6.5	8.7	10.9	-4.4%
COc1ccc(C(=O)COC(=O)c2cc(S(=O)(=O)NCc3ccccc3)ccc2O)cc1	-6.6	1.7	-0.3	-1.4	21.6	1.3%
COCCN(C(=O)COC(=O)c1ccc(Cl)nc1)c1c(N)n(Cc2ccccc2)c(=O)[nH]c1=O	-2.0	-0.8	7.0	-3.9	2.0	3.0%
O=C(O)CSc1nc(-c2ccc(Cl)cc2)nc2c1oc1ccccc12	-1.0	1.2	4.0	-3.1	0.6	4.3%
Cc1c(C(=O)N(C)C)sc2c1c(=O)n(-c1ccc(Cl)c(Cl)c1)c(=O)n2CC(=O)N1CCCCC1C (stereo not drawn)	x	0.5	x	x	-14.0	0.1%
CCc1ccc(NC(=O)CSc2nnc(Cc3cccn3C)n2-c2ccc(OC)cc2)cc1	1.0	4.7	-9.9	-19.4	-3.0	-1.5%
C=CCn1c(SCC(=O)Nc2ccccc2)nc2scc(-c3cccs3)c2c1=O	-0.7	4.9	-5.2	-0.5	5.6	-2.6%

Some entries already given, showing only TRPML1 inh and PINK1 expr mod:
| structure | TRPML1 inh | PINK1 expr mod |
| --- | --- | --- |
| CCC(CC)C(=O)Nc1cccc(C(=O)Nc2ccc3c(c2)OCO3)c1 | -12.5 | -0.3%[38.3 µM] |
| CCN(CC)CC(=O)NC1CCCc2c1cnn2-c1cc(F)cc(F)c1 (stereo not drawn) | 10.9 | -4.4% |
| COc1ccc(C(=O)COC(=O)c2cc(S(=O)(=O)NCc3ccccc3)ccc2O)cc1 | 21.6 | 1.3% |
| COCCN(C(=O)COC(=O)c1ccc(Cl)nc1)c1c(N)n(Cc2ccccc2)c(=O)[nH]c1=O | 2.0 | 3.0% |
| O=C(O)CSc1nc(-c2ccc(Cl)cc2)nc2c1oc1ccccc12 | 0.6 | 4.3% |
| Cc1c(C(=O)N(C)C)sc2c1c(=O)n(-c1ccc(Cl)c(Cl)c1)c(=O)n2CC(=O)N1CCCCC1C (stereo not drawn) | -14.0 | 0.1% |

Later entries:
SMILES	D2 agonist	TRPML1 agonist	CtBP-E1A blk	Six1-Eya2 inh	TRPML1 inh	PINK1 expr mod
CC1CCN(Cc2c(O)ccc3c2O/C(=C\c2ccco2)C3=O)CC1	-4.2	15.2	0.0	4.9	8.4	0.5%
Cc1cc(C)cc(NC(=O)Cn2cc(C=O)c3ccccc32)c1	-2.0	-0.3	9.9	10.4	-6.1	2.6%
O=C(Nc1cc(C(F)(F)F)ccc1Cl)c1ccc(NC(=O)C(F)(F)F)cc1	-6.4	0.7	-27.3	4.8	5.0	-0.1%
COc1cccc(NC(=O)c2nc(S(C)(=O)=O)ncc2Cl)c1	-6.9	1.7	-90.3*	24.0	-19.6	-1.3%
Cc1cccc(NC(=O)CSCC(=O)Nc2ccccc2N2CCCC2)c1	-1.4	-0.3	-7.5	-6.8	-1.8	1.2%
CCOC(=O)COn1c(=O)c(-c2ccc(C)cc2)[n+]([O-])c2ccccc21	-1.0	4.2	x	-2.5	-13.8	0.6%
O=C(Nc1ccc2c(c1)OCO2)c1csc([C@H]2C[C@H](O)[C@@H](CO)O2)n1	-2.3	-0.3	3.4	0.8	x	2.5%
